Source: PubChem
MITF inh: blocks MITF activity. TRPM1 promoter luciferase, luminescence, 24 h. inhibition, % (test concentration not listed). hit rate 0.28% among 37,000;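 active = most replicates at 85% or more, or half of them and the mean; inconclusive = half reach 85% but not the mean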;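 also: human melanocyte line stably carrying TRPM1 promoter luciferase reporter; 0% = vehicle wells and 100% = a positive control; the first replicate is given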
Hedgehog inh: blocks Sonic Hedgehog signaling; Shh-LIGHT2 Gli-luciferase reporter, 30 h; inhibition, % (test concentration not listed); hit rate 2.1% among 22,000; AID 2313;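 active = replicate mean of 65% or more; inconclusive = mean lower but half the replicates past it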;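 also: pathway switched on by Shh-conditioned medium diluted 1 in 25 in low serum; 100 nL library stock added to about 40 µL; 0% = median of neutral wells and 100% = positive control level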
PD-1 reversal: activators reversing PD-1 mediated T-cell inhibition. primary human CD4 T cells, PD-L1 beads, CellTiter-Glo 96 h. AID 2316. 29,000 tested, under 10 active. activation, % (concentration not given with the values);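 active = replicate mean of 50% or more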;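 also: 0% = median vehicle wells and 100% = positive control; 100 nL library stock added to about 50 µL; numbers are from one replicate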
YB-1 expression: YB-1 expression inhibition; U2OS, qRT-PCR YB-1 vs CDIP delta delta Cp, 16 h; hits give high values; zero = DMSO, each unit about twofold; AID 434959; delta delta Cp (YB-1 minus CDIP) (concentration not given with the values); hit rate 0.37% among 30,000;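 active = delta delta Cp rounded down to an integer at or above 3, about 3 SD of DMSO wells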;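 also: higher means less YB-1 transcript or more CDIP transcript relative to DMSO; stock transfer was 100 nL into about 100 µL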
An asterisk follows results filed as active; ? = inconclusive; nt = not tested or not shown. This is a subset; rates above refer to the full screens.

molecule | MITF inh | Hedgehog inh | PD-1 reversal | YB-1 expression
O=[N+]([O-])c1ccc(N2CCN(S(=O)(=O)c3ccc(F)cc3)CC2)cc1NCc1ccco1 | 0 | nt | 1.1 | nt
C[C@H]1CN([C@@H](C)CO)C(=O)c2cc(NC(=O)Cn3cnnn3)ccc2O[C@H]1CN(C)Cc1ccncc1 | 2 | -17 | 0.6 | 0.23
CCOC(=O)c1ccc(NC(=O)CN2C(=O)COc3ccc(Cl)cc32)cc1 | -2 | nt | 0.7 | nt
O=C(O)c1cccc2cccc(S(=O)c3cccc4cccc(CO)c34)c12 (stereo not drawn) | -9 | 6 | 0.4 | 0.075
C[C@H](CO)N1C[C@H](C)[C@H](CN(C)S(=O)(=O)c2cccs2)Oc2ccc(NC(=O)Nc3ccc(F)cc3)cc2CC1=O | -5 | -20 | nt | -0.24
C[C@H](CO)N1C[C@H](C)[C@H](CN(C)S(=O)(=O)c2cn(C)cn2)Oc2c(NC(=O)c3ccncc3)cccc2C1=O | -4 | -20 | 2.9 | 1
COc1ccc(NC(=O)Nc2cccc3c2O[C@H](CN(C)S(=O)(=O)c2ccc(OC)cc2)[C@@H](C)CN([C@@H](C)CO)C3=O)cc1 | -34 | 12 | 1.1 | -0.24
C[C@H]1CN([C@@H](C)CO)C(=O)Cc2cc(NC(=O)Nc3ccccc3)ccc2O[C@@H]1CN(C)Cc1ccc2c(c1)OCO2 | -7 | 70* | 1.5 | -0.76
O=C(CN1C(=O)CNC1=O)Nc1cccc2ccccc12 | 10 | nt | 0.8 | nt
Cn1c(=O)n(C)c2cc(S(=O)(=O)NCc3ccco3)ccc21 | 15 | nt | 2.3 | nt
COc1ccc(N(C(C)C(=O)Nc2ccc(Br)cc2F)S(C)(=O)=O)cc1 (stereo not drawn) | 5 | nt | -0.6 | nt
C=C1C(=O)O[C@H]2C1[C@H](OC(=O)/C(C)=C/CO)C/C(C)=C\CC[C@@]1(C)OC21 (stereo partly drawn) | -9 | 26 | -28 | 0.13
C[C@H]1CN([C@@H](C)CO)C(=O)c2cc(NC(=O)Cc3cn(C)c4ccccc34)ccc2O[C@@H]1CN(C)S(C)(=O)=O | 2 | nt | 3.1 | 0.39
NC(=O)CSCC(=O)Nc1ccccc1F | -5 | nt | -0.3 | nt
C[C@@H]1CN([C@H](C)CO)C(=O)Cc2cc(NC(=O)C3CCCCC3)ccc2O[C@@H]1CN(C)CC1CCCCC1 | -8 | 76* | 0.8 | 0.1
Cc1ccnc(NS(=O)(=O)c2ccc(NC(=O)c3oc4ccccc4c3C)cc2)n1 | -3 | nt | 1.9 | nt
C[C@@H]1CCCCO[C@H](CN(C)C(=O)Nc2ccccc2)[C@@H](C)CN([C@H](C)CO)C(=O)c2cc(NC(=O)Nc3ccc(F)cc3)ccc2O1 | 0 | 10 | nt | 0.0096
C[C@@H]1CN([C@H](C)CO)C(=O)c2cccc(NC(=O)CCCCCC(=O)Nc3ccccc3N)c2O[C@@H]1CN(C)C(=O)NC1CCCCC1 | -18 | nt | -0.3 | 0.2
C[C@@H]1CN([C@@H](C)CO)C(=O)c2cccc(NS(=O)(=O)c3cn(C)cn3)c2O[C@@H]1CN(C)S(=O)(=O)c1ccc(Cl)cc1 | -6 | -17 | -0.9 | -0.5
C[C@H]1CN([C@@H](C)CO)C(=O)Cc2cc(NS(C)(=O)=O)ccc2O[C@H]1CN(C)C(=O)Nc1ccc(C(F)(F)F)cc1 | 4 | nt | -1.0 | -0.71
CCC(Sc1nc2ccccc2[nH]1)C(=O)Nc1ccc(NC(C)=O)cc1 (stereo not drawn) | -5 | nt | 1.1 | nt
C[C@H]1CN([C@@H](C)CO)C(=O)c2cccc(NC(=O)c3ccc(-c4nccs4)cc3)c2O[C@H]1CN(C)Cc1ccc(C(=O)O)cc1 | -3 | 6 | 0.2 | -0.3
C[C@H]1CN([C@@H](C)CO)C(=O)c2cc(NS(=O)(=O)c3ccc(Cl)cc3)ccc2O[C@H]1CN(C)S(=O)(=O)c1ccc(Cl)cc1 | 13 | nt | -1.7 | -0.52
O=C(COc1ccccc1)Nc1ccc2oc(-c3cccc(Cl)c3)nc2c1 | -86 | nt | 1.6 | nt

Nothing new here: four of the compounds above.
molecule | MITF inh | Hedgehog inh | PD-1 reversal | YB-1 expression
C[C@@H]1CN([C@@H](C)CO)C(=O)c2cccc(NS(=O)(=O)c3cn(C)cn3)c2O[C@@H]1CN(C)S(=O)(=O)c1ccc(Cl)cc1 | -6 | -17 | -0.9 | -0.5
C[C@H]1CN([C@@H](C)CO)C(=O)Cc2cc(NS(C)(=O)=O)ccc2O[C@H]1CN(C)C(=O)Nc1ccc(C(F)(F)F)cc1 | 4 | nt | -1.0 | -0.71
CCC(Sc1nc2ccccc2[nH]1)C(=O)Nc1ccc(NC(C)=O)cc1 (stereo not drawn) | -5 | nt | 1.1 | nt
C[C@H]1CN([C@@H](C)CO)C(=O)c2cccc(NC(=O)c3ccc(-c4nccs4)cc3)c2O[C@H]1CN(C)Cc1ccc(C(=O)O)cc1 | -3 | 6 | 0.2 | -0.3

Continuation:
molecule | MITF inh | Hedgehog inh | PD-1 reversal | YB-1 expression
C[C@@H]1CN([C@H](C)CO)C(=O)Cc2cc(NC(=O)c3ccncc3)ccc2O[C@@H]1CN(C)S(=O)(=O)c1ccccc1 | -2 | 7 | nt | -0.19
C[C@@H]1CCCCO[C@H](CN(C)S(=O)(=O)c2cccs2)[C@@H](C)CN([C@H](C)CO)C(=O)c2cc(NC(=O)C3CCCCC3)ccc2O1 | 4 | -8 | -3.4 | 0.36
C[C@@H]1CN([C@H](C)CO)C(=O)Cc2cc(NS(=O)(=O)c3ccc(Cl)cc3)ccc2O[C@H]1CN(C)Cc1ccccc1 | -11 | 1 | nt | 0.17
C[C@H](CO)N1C[C@H](C)[C@@H](CN(C)Cc2ccccc2)Oc2c(NC(=O)Nc3ccc4c(c3)OCO4)cccc2C1=O | -14 | -13 | -2.3 | 0.056
C[C@H]1CN([C@@H](C)CO)C(=O)Cc2cc(NC(=O)NC3CCCCC3)ccc2O[C@H]1CN(C)S(=O)(=O)c1cccs1 | 6 | 36 | -0.8 | 0.32
C[C@H]1CN([C@@H](C)CO)C(=O)c2cc(NC(=O)NC3CCCCC3)ccc2O[C@H]1CN(C)C(=O)Nc1ccc2c(c1)OCO2 | -19 | -25 | -4.2 | -0.047
O=C(O)CCCC(=O)Nc1ccccc1 | -12 | nt | 3.9 | nt
Cc1ccc(S(=O)(=O)N(C)C[C@H]2Oc3ccc(NC(=O)Nc4ccc(F)cc4)cc3CC(=O)N([C@@H](C)CO)C[C@@H]2C)cc1 | 14 | 9 | 0.0 | -0.084
COc1ccc(S(=O)(=O)N(C)C[C@@H]2Oc3ccc(NS(=O)(=O)c4ccc(C)cc4)cc3CC(=O)N([C@@H](C)CO)C[C@@H]2C)cc1 | -4 | -25 | nt | -0.05
Cc1ccc(NC(=O)CSc2nc3sc(C)c(C)c3c(=O)n2-c2ccc(C)c(C)c2)cc1 | -2 | nt | -1.5 | nt
C[C@H]1CN([C@@H](C)CO)C(=O)Cc2cc(NS(=O)(=O)c3ccc(Cl)cc3)ccc2O[C@H]1CN(C)S(=O)(=O)c1ccc(F)cc1 | 7 | 21 | 1.6 | 0.14
COc1ccc(NC(=O)Nc2ccc3c(c2)CC(=O)N([C@H](C)CO)C[C@@H](C)[C@@H](CN(C)Cc2ccc(C(F)(F)F)cc2)O3)cc1 | 20 | ? | nt | 0.044
C[C@@H]1CN([C@H](C)CO)C(=O)Cc2cc(NC(=O)Nc3ccc4c(c3)OCO4)ccc2O[C@H]1CN(C)S(=O)(=O)c1cccs1 | 5 | -18 | nt | 0.4
C[C@@H]1CN([C@H](C)CO)C(=O)c2cccc(NS(=O)(=O)c3ccccc3)c2O[C@@H]1CN(C)C(=O)Nc1ccccc1 | 2 | -17 | 1.1 | 0.16
COc1ccc(S(=O)(=O)N(C)C[C@@H]2Oc3ccc(NC(=O)CCN4CCOCC4)cc3C(=O)N([C@@H](C)CO)C[C@H]2C)cc1 | -7 | -14 | -1.2 | -0.24
C[C@H](CO)N1C[C@H](C)[C@H](CN(C)C(=O)Nc2ccc3c(c2)OCO3)Oc2c(NC(=O)Nc3cccc4ccccc34)cccc2C1=O | 15 | -93 | -5.9 | -0.83
CN(Cc1nc2ccccc2n1C)S(=O)(=O)c1ccc(F)cc1 | -37 | nt | -0.1 | nt
CC(C)NC(=O)N(C)C[C@H]1Oc2ccc(NS(=O)(=O)c3cccs3)cc2CC(=O)N([C@@H](C)CO)C[C@H]1C | -11 | -20 | 1.7 | -0.079
C[C@@H]1CN([C@@H](C)CO)C(=O)c2cc(NC(=O)CCC(F)(F)F)ccc2O[C@H]1CN(C)C | -10 | 5 | 0.4 | 0.087
CC(C)NC(=O)N(C)C[C@@H]1Oc2c(NS(C)(=O)=O)cccc2C(=O)N([C@@H](C)CO)C[C@@H]1C | -6 | -16 | 3.6 | -0.28
Cc1ccc(-c2csc3ncn(CC(=O)Nc4ccc(F)c(Cl)c4)c(=O)c23)cc1C | -10 | nt | 0.0 | nt
Cc1ccc(S(=O)(=O)Nc2cccc3c2O[C@H](CN(C)C(=O)Nc2ccccc2)[C@@H](C)CN([C@@H](C)CO)C3=O)cc1 | 1 | -18 | -1.0 | -0.19
CNC(=O)NC(=O)CSc1nnc(-c2ccncc2)n1Cc1ccccc1 | 16 | -18 | 1.0 | -0.083
C[C@H]1CN([C@@H](C)CO)C(=O)c2cccc(NC(=O)NC3CCCCC3)c2O[C@@H]1CN(C)S(=O)(=O)c1cn(C)cn1 | 6 | -53 | nt | -0.51

Next section
structure | MITF inh | Hedgehog inh | PD-1 reversal | YB-1 expression
C[C@H](CO)N1C[C@H](C)[C@@H](CN(C)CC2CC2)Oc2c(NC(=O)C3CCCCC3)cccc2C1=O | 8 | 24 | -2.9 | 0.62
CC(C)(C)C(=O)Nc1ccc2c(c1)C(=O)C(=O)c1ccccc1-2 | 97* | 88* | -58 | nt
C[C@H]1CN([C@@H](C)CO)C(=O)Cc2cc(NC(=O)CCN3CCOCC3)ccc2O[C@H]1CN(C)C(=O)Nc1ccc(C(F)(F)F)cc1 | -4 | nt | -0.5 | -0.28
C[C@H](CO)N1C[C@H](C)[C@@H](CN(C)CC2CCCCC2)Oc2ccc(N(C)C)cc2C1=O | 8 | nt | nt | -0.53
O=C(CCC(=O)c1ccc(-c2ccccc2)cc1)Nc1cccnc1 | -22 | nt | 0.3 | nt
C[C@H]1CN([C@@H](C)CO)C(=O)c2cccc(NS(=O)(=O)c3cccs3)c2O[C@H]1CN(C)C(=O)Nc1ccc(C(F)(F)F)cc1 | 9 | 16 | -2.1 | -0.011
Cc1ncc([N+](=O)[O-])n1CC(C)O (stereo not drawn) | 2 | 16 | nt | 0.32
C[C@H]1CN([C@@H](C)CO)C(=O)Cc2cc(NC(=O)C3CCCCC3)ccc2O[C@@H]1CN(C)Cc1ccc(C(=O)O)cc1 | 1 | -2 | nt | 0.061
C[C@H]1CN([C@@H](C)CO)C(=O)c2cc(NC(=O)Nc3ccccc3)ccc2O[C@@H]1CN(C)S(=O)(=O)c1ccc(Cl)cc1 | 0 | 16 | 1.1 | -0.22
CCc1ccc(CCC(=O)Nc2ccc3ccccc3c2)o1 | -45 | nt | -3.7 | nt
CS(=O)(=O)N(CC(=O)Nc1cccc(Cl)c1Cl)c1cc(C(F)(F)F)ccc1Cl | -11 | nt | 1.3 | nt
O=C(NCc1nc2ccccc2[nH]1)c1c(F)c(F)c(F)c(F)c1F | 22 | nt | -7.1 | nt
Cc1noc(C)c1S(=O)(=O)N(C)C[C@@H]1Oc2c(NC(=O)c3ccc(-c4nccs4)cc3)cccc2C(=O)N([C@@H](C)CO)C[C@H]1C | -2 | 38 | 0.9 | -0.18
COc1ccc(NC(=O)Nc2cccc3c2O[C@H](CN(C)S(=O)(=O)c2ccc(F)cc2)[C@H](C)CN([C@@H](C)CO)C3=O)cc1 | -24 | -22 | -2.5 | 0.15
C[C@@H]1CN([C@@H](C)CO)C(=O)Cc2cc(NC(=O)CCC(F)(F)F)ccc2O[C@@H]1CN(C)C(=O)Nc1ccc(C(F)(F)F)cc1 | 3 | nt | nt | 0.29
O=C(NCC[C@@H](CNC(=O)c1cccc(O)c1O)NC(=O)c1cccc(O)c1O)c1cccc(O)c1O | 17 | 24 | -4.5 | 0.27
Cc1cc2c([nH]c3ccccc32)c2c1OC(C)(C)C=C2 | -109 | -24 | -2.5 | 0.29
CC1CCC2(C)C(C(=O)O)=CCCC2C1(C)CCC1=CC(O)OC1=O (stereo not drawn) | -6 | -3 | 0.3 | -1.2
COc1ccc(CNCCSc2nnnn2C)cc1 | -12 | nt | 2.5 | nt
C[C@H]1CN([C@@H](C)CO)C(=O)Cc2cc(NC(=O)c3ccncc3)ccc2O[C@@H]1CN(C)CC1CC1 | -15 | -36 | 1.6 | 0.22
CCC1=NC(C(F)(F)F)(C(F)(F)F)C2=C(CC(C)(C)CC2=O)N1Cc1ccccc1 | -31 | 36 | -2.4 | -0.91
COc1ccc(S(=O)(=O)N(C)C[C@@H]2Oc3c(cccc3N(C)C)C(=O)N([C@H](C)CO)C[C@H]2C)cc1 | 6 | 1 | -2.0 | 0.0065
C[C@@H]1CN([C@H](C)CO)C(=O)Cc2cc(N(C)C)ccc2O[C@H]1CN(C)C(=O)Nc1ccc(F)cc1 | -1 | -18 | 1.8 | 0.0019
